NPYLR7 ag: mosquito NPYLR7 agonism; HEK293T NPYLR7/Galpha15, GCaMP6s calcium fluorescence; activation, % at 10 µM; 0.15% of 270,000 active; in the data active = activation above about 40%;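 also: 0% = vehicle and 100% = reference agonist at the receptor; some compounds past the cut are filed as inactive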
NPYLR7 ag max-min: second read-out of NPYLR7 ag, no call of its own (marks repeat the call); activation, %; measured here: Max-Min RFU normalised activation; some inactives read as strong as hits;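 span of the calcium signal over five minutes; 0% = vehicle and 100% = native peptide agonist; compound fluorescence can raise it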
An asterisk follows results filed as active; & = joins results of further samples. Not all compounds are listed; the hit share may differ from the screen's.

SMILES	NPYLR7 ag	NPYLR7 ag max-min
COc1cccc(-c2cc(C(=O)N3CCN(c4cccc(C(F)(F)F)c4)CC3)nc3cc(C(C)(C)C)nn23)c1	-8&19	-1&14
CC1CN(C(=O)c2cc3ccsc3n2Cc2ccccc2F)CCN1S(C)(=O)=O (centres undefined)	3	16
COC(=O)c1ccc(C2c3c(oc4cc(C)c(Cl)cc4c3=O)C(=O)N2C)cc1 (centres undefined)	4	4
Cn1c(=O)c2c(nc(/C=C/c3cccc(Cl)c3)n2C)n(C)c1=O	-6	-6
COc1ccc(-c2cnc(-c3ccc(CNC(=O)c4cc(C)nc(Cl)c4)cc3)[nH]2)cc1	17	27
CC(C)NC(=O)CN1CCN(C(=O)CN2C(=O)C(Oc3ccccc3)C2c2ccccc2)CC1 (centres undefined)	2	4
Cc1ccc(S(=O)(=O)NNC2=C3OC[C@@H](O3)[C@@H](N3C(=O)c4ccccc4C3=O)C2)cc1	1	35
O=C(c1ccc(-c2ccc(F)cc2)s1)N1CCc2ccccc2C1	-2	13
Cc1ccc2nc(N(CCCN(C)C)C(=O)c3cc(C)on3)sc2c1	1	-1
CCS(=O)(=O)Oc1cc(CN(CC(C)C)S(=O)(=O)c2ccc(Cl)cc2)ccc1OC	14	17
CCN1CCN(C(=O)CCN(CC(C)C)c2nc(-c3ccccc3)nc3cc(Cl)ccc23)CC1	9	11
O=C(Nc1nc(-c2ccc(I)cc2)cs1)c1c(F)cccc1F	0	-2

Sorted by heavy-atom count (high to low): part of the list above
SMILES	NPYLR7 ag	NPYLR7 ag max-min
COc1cccc(-c2cc(C(=O)N3CCN(c4cccc(C(F)(F)F)c4)CC3)nc3cc(C(C)(C)C)nn23)c1	-8&19	-1&14
COc1ccc(-c2cnc(-c3ccc(CNC(=O)c4cc(C)nc(Cl)c4)cc3)[nH]2)cc1	17	27
Cc1ccc2nc(N(CCCN(C)C)C(=O)c3cc(C)on3)sc2c1	1	-1

Continuation:
SMILES	NPYLR7 ag	NPYLR7 ag max-min
O=C(CN1CCN(S(=O)(=O)c2ccc3c(c2)CCC3)CC1)Nc1ccc(F)c(F)c1	-1	-3
CCC(=O)Nc1ccc(NC(=O)c2nc(C(C)C)cs2)cc1Cl	4	-6
Cc1cn(CCNC(=O)c2cccc(NCc3sccc3C)c2)nn1	5	4
COc1ccc(-n2nc(C(C)(C)C)cc2NC(=O)c2ccc(OC(F)(F)F)cc2)cc1	4	0
CC(CC12CC3CC(CC(C3)C1)C2)NCc1c(C(=O)N2CCCC2)nc2ccccn12 (centres undefined)	16	19
CC1CN(CC(=O)Nc2ccc(Cl)c(S(=O)(=O)N3CCCCC3)c2)CC(C)O1 (centres undefined)	6	3
CCNC(=O)C1(C)CCCN1C(=O)c1ccc(N(C)C)cc1 (centres undefined)	7	4
COc1ccc(C2C3C(C)=NN=C3CC(C)(O)C2C(C)=O)cc1 (centres undefined)	7	6
COc1ccc(CN(C)C(=O)Nc2c(C)n(C)n(-c3ccccc3)c2=O)c(OC)c1	-3	-1
COC(=O)c1c(C)[nH]c(C(=O)NCc2ccccc2CN2CCCC2)c1C	1	1
Cc1c(C(C)NC(=O)c2ccc3c(c2)OCCO3)cnn1-c1ccccn1 (centres undefined)	14	5
Cc1nn2c(N3CCCC3)c3c(nc2c1-c1ccccc1)CCCC3	5	5

Complete entries from above. Screens in order: NPYLR7 ag, NPYLR7 ag max-min
CC(CC12CC3CC(CC(C3)C1)C2)NCc1c(C(=O)N2CCCC2)nc2ccccn12 (centres undefined) across the screens: 16, 19
Cc1c(C(C)NC(=O)c2ccc3c(c2)OCCO3)cnn1-c1ccccn1 (centres undefined) across the screens: 14, 5
CC1CN(CC(=O)Nc2ccc(Cl)c(S(=O)(=O)N3CCCCC3)c2)CC(C)O1 (centres undefined) across the screens: 6, 3
Cc1nn2c(N3CCCC3)c3c(nc2c1-c1ccccc1)CCCC3 across the screens: 5, 5
COc1ccc(C2C3C(C)=NN=C3CC(C)(O)C2C(C)=O)cc1 (centres undefined) across the screens: 7, 6

(next part)
SMILES	NPYLR7 ag	NPYLR7 ag max-min
COc1ccc(NC(=O)c2sc(=O)n(Cc3cccc(C(F)(F)F)c3)c2C)cc1OC	-9	-8
O=C(CCn1cncn1)N1CCCC(Nc2ccc3c(c2)OCCO3)C1 (centres undefined)	2	-1
CCCCN(Cc1ccco1)C(=O)c1c(C)nc2ncccn12	5	-4
O=C(COc1cc(=O)n2ccccc2n1)Nc1cccc(Cl)c1	-6	-4
CCc1nc(C)cn1S(=O)(=O)c1ccc(OC)c(C)c1	4	1
CS(=O)(=O)c1ccc2c(c1)CCCN2Cc1cccc2cccnc12	-3	-4
COc1ccc(S(=O)(=O)Oc2cc(CN(C(=O)NC(C)(C)C)C3CC3)ccc2OC)cc1	13	21
CC(=O)Oc1c(C)cc(CN2CCCC2c2c(C)noc2C)cc1C (centres undefined)	1	-2
O=C(NCc1ccccc1C(F)(F)F)C1CCC(=O)N(CCCc2ccccc2)C1 (centres undefined)	-2	-5
Cc1cc(NC(=O)c2ccc(S(=O)(=O)N(C)C)cc2)n(-c2nc3ccccc3s2)n1	-8	-14
Cc1ccc2oc(CN(Cc3ccccc3Cl)C(=O)C(C)Oc3ccccc3)nc2c1 (centres undefined)	3	1
Cc1nc(CSc2ccc(C(=O)NNC(=O)c3ccc4c(c3)OCCO4)cc2)cs1	-1	-3
CN(C)c1ccc(C2=NOC(CN(Cc3cccc(C(F)(F)F)c3)C(=O)c3ccco3)C2)cc1 (centres undefined)	2	5
O=C(CC(c1cccc(Cl)c1)c1ccccc1O)N1CCC(CO)CC1 (centres undefined)	22	11
COCCCN(Cc1ccccc1C(=O)OC)Cc1cccn1Cc1cccc(C(F)(F)F)c1	9	18
O=C(Cn1c(C2CC2)nc2ccccc21)NCCCOC1CCOC1 (centres undefined)	10	7
CCCc1ccc(C(=O)N2CCCC(N(C)C)CC2)cc1 (centres undefined)	13	8
Cn1ccc2c(-c3cc(N4CCCCC4)ncn3)ccnc21	-7	8
CCOC(=O)c1nc2ccccc2nc1N1CCCN(S(=O)(=O)c2c(C)cc(C)cc2C)CC1	4	-1
COC(=O)C(OC(=O)c1cccc(CS(C)(=O)=O)c1)c1ccccc1 (centres undefined)	0	4
CN(Cc1ccccc1)S(=O)(=O)c1cccs1	-3	0
N#CC(NC(=O)Cc1cccs1)c1cccc(Br)c1 (centres undefined)	1	3
COc1cc(C)nc(NS(=O)(=O)c2ccc(C)cc2)n1	1	-1
Cc1cc(C)cc(N(Cc2cc(=O)n3ccccc3n2)C2=NC3CS(=O)(=O)CC3S2)c1 (centres undefined)	5	3
CCCN(CC(=O)N(Cc1cccn1Cc1ccc(Br)cc1)C1CCCCC1)S(=O)(=O)c1ccc(NC(C)=O)cc1	26	34
COc1ccc2c(c1)c(CC(=O)O)c(C)n2C(=O)c1ccc(Cl)cc1	-10&-4&-1&3	-15&-12&-7&-28
CN1c2ccccc2-c2nc3ccccc3n2C1c1ccncc1 (centres undefined)	3	2
Cc1cc(C(=O)Nc2cccc(-c3cccc(-c4ccc(F)cc4)n3)c2)nn1C(C)(C)C	24	25
O=C1NCCN(C2CCCC2)C1CC(=O)N1CCN(C(=O)c2cccs2)CC1 (centres undefined)	2	0
CCC(C)NC(=O)C1CSCN1C(=O)c1ccc(OCC(F)(F)F)nc1 (centres undefined)	4	3
Cc1cc(C)c(S(=O)(=O)Nc2ccccc2C(=O)NCCc2ccc(F)cc2)c(C)c1	-1	11
COc1ccc(-c2nc(CN(C)Cc3ccon3)c(C)o2)c(F)c1	2	-6
O=C1CN(/N=C\c2ccc(-c3ccc(Cl)c(Cl)c3)o2)C(=O)N1	-22	-30
CCN(Cc1ccc(Br)s1)C(=O)C(C)n1c(=O)oc2ccccc21 (centres undefined)	6	2
O=C(Cn1nnnc1CN1CCCC1)NCCC1=CCCCC1	-3	-3
O=C(CCCn1ncn2c(cc3occc32)c1=O)NC1CCCC1	1	0
CCc1csc(CNC(=O)c2ccc(N(C)C3CCOC3)nc2)n1 (centres undefined)	10	3
CC1CCN(C(=O)Nc2cccc([N+](=O)[O-])c2)CC1	1	-2
Cc1c(N=Cc2c3ccccc3cc3ccccc23)c(=O)n(-c2ccccc2)n1C	-2	-9
COc1ccc(CCN(C)C(=O)c2ccc(C(F)(F)F)c(F)c2)cc1OC	-12	-17
CCCNC(=O)N1CCc2cc(OC)c(OC)cc2C1C(CC)NC(=O)c1cccc(Cl)c1 (centres undefined)	2	11
Cc1cc(NC(=O)c2ccc(S(=O)(=O)N(C)C3CCCCC3)cc2)n(C)n1	1	12
Cc1cn2c3c(=O)n(C)c(=O)n(C)c3nc2n1CCN1CCC(Cc2ccccc2)CC1	2	-4
O=C(CSc1nnc(-c2ccncc2)n1-c1cccc(C(F)(F)F)c1)OCc1ccccc1	-5	3
C1=CCC(c2nc(Cc3cccnc3)no2)CC1 (centres undefined)	-2	-3
CCN(CC)c1onc(-c2ccccc2)c1CN(CC1CC1)C(=O)Cc1ccccc1	-5	7
Cc1cccc(COC(CN2CCN(C(=O)c3sccc3C)CC2)c2ccc(Cl)cc2)c1 (centres undefined)	-5	0
C=CCNC(=O)c1ccccc1N1CCC(NC(=O)c2cccc(Cl)c2)CC1	-2	2

An excerpt of these results, with values under each structure:
Values in the order: NPYLR7 ag | NPYLR7 ag max-min
CCC(=O)Nc1ccc(NC(=O)c2nc(C(C)C)cs2)cc1Cl
  4 | -6
CC1CCN(C(=O)Nc2cccc([N+](=O)[O-])c2)CC1
  1 | -2
CCCCN(Cc1ccco1)C(=O)c1c(C)nc2ncccn12
  5 | -4
Cc1cc(C(=O)Nc2cccc(-c3cccc(-c4ccc(F)cc4)n3)c2)nn1C(C)(C)C
  24 | 25

(cont.)
SMILES	NPYLR7 ag	NPYLR7 ag max-min
CCSc1nc2ccc(-n3cnnc3)cc2o1	0	-1
Cc1cccn2c(=O)c(C=C3SC(=S)N(CC(C)C)C3=O)c(NCc3ccco3)nc12	25	29
Cc1nn(-c2ccc(Cl)c(Cl)c2)c(C)c1C(=O)O	5	10
O=C1N/C(=C/C(=O)N2CCC3(CCNC3=O)CC2)c2ccccc21	7	6
CN(C)c1ccc(C=C2SC(=S)N(c3cccc(O)c3)C2=O)cc1	0	-2
O=C(Nc1c2c(nn1-c1ccccc1)CS(=O)C2)C12CC3CC(CC(C3)C1)C2 (centres undefined)	-5	-3
CN(Cc1ccc(-c2ccc(Cl)cc2)o1)C(=O)CCl	6	6
Clc1cccc(Oc2cc(Cl)ncn2)c1	15	17
C=CCn1c(SCc2cscn2)nnc1C1CCS(=O)(=O)C1 (centres undefined)	2	1
O=C1C2CN3CCN(C2)CC1(Cc1ccccc1)C3	-7	-14
CC(=O)c1cc(C(C)=O)c(O)cc1O	5	6
CC(C(=O)O)c1ccc(C(=O)c2ccccc2)s1 (centres undefined)	-3	-7
Cc1nc(C(=O)NCCC2=CCCCC2)cs1	7	-1
O=C(Nc1ccc(Nc2cc(-n3ccnc3)ncn2)cc1)c1cccc(C(F)(F)F)c1	-13	-18
O=C(NCCN1CCOCC1)c1csc(COc2cccc(C(F)(F)F)c2)n1	5	-3
CC(C)c1cc(N(C)C(=O)COc2ccccc2C(C)(C)C)n[nH]1	-1	-2
CNCC(=O)N(Cc1ccccc1)Cc1cccc(C)n1	0	-7
Cc1ccc(C)c(NC(=O)CSc2nc(=O)n3cc(C)ccc3n2)c1	4	2
CC(C#N)(Cc1ccccc1)Nc1ccccc1 (centres undefined)	8	13
CC1(CCc2ccccc2)NC(=O)N(CCOc2cccc(Cl)c2)C1=O (centres undefined)	0	-3
COc1ccccc1C1CN(CCNC(=O)CCn2c(=O)[nH]c3ccccc32)Cc2ccccc2O1 (centres undefined)	18	4
CC(NC(=O)Nc1ccc(C(=O)NC(C)(C)C)cc1)c1nccs1 (centres undefined)	-5	-6
CCC(NC(=O)c1cccnc1Nc1ccc(OC)cc1)C12CC3CC(CC(O)(C3)C1)C2 (centres undefined)	-6	-10
O=C(N[C@H](Cc1ccccc1)C(=O)N1CCC(C(=O)N2CCCCC2)CC1)C1CCN(c2nccc(C(F)(F)F)n2)CC1	-3	10
CCCc1cc(C(=O)OCC)nn1C1CCN(C(=O)c2ccc(Cl)nc2)CC1	23	17
CN(Cc1cc(C(C)(C)C)n[nH]1)C(=O)Cc1ccc2c(c1)NC(=O)CO2	-8	-13
CC(c1cccnc1)N(C(=O)Nc1ccccc1C(C)(C)C)C1CC1 (centres undefined)	2	0
CCC(=O)N1CCN(c2cc(Cl)nc(SCC(=O)N3CCC(Cc4ccccc4)CC3)n2)CC1	-10	-10
O=S(=O)(c1ccccc1Cl)N1CCN(Cc2ccccn2)CC1	0	-4
O=C(CC(C(=O)NC1CCc2[nH]c3ccccc3c2C1)C1CCCCC1)NC1CCc2[nH]c3ccccc3c2C1 (centres undefined)	-7	-10
CCC(=O)Nc1cccc(C(=O)N(CC)CC2CCOCC2)c1	-6	-11
OCC1COc2ccccc2O1 (centres undefined)	0	0
CCn1c(C)ccc(C(=O)N2CC(c3ccncc3)C2)c1=O	3	1
Cc1cc(C)c(NC(=O)CNc2cc(=O)n3ccccc3n2)c(C)c1	-14	-11
CCOCCn1ncc(N2CCOC(CCN)C2)cc1=O (centres undefined)	1	-2
Cc1ccc(NC(=O)COc2cc(C)c(C)nn2)cc1	-2	19
CCOc1nc(-c2ccc(Cl)c(Cl)c2)n(-c2cccc(NC(=O)c3ccc(OC)cc3)c2)n1	7	12
Cc1nnc(N2CCCC(C(N)=O)C2)s1 (centres undefined)	-3	-5
N#CC1C(=N)Oc2n[nH]c(-c3ccc4c(c3)OCO4)c2C1c1ccc2c(c1)OCO2 (centres undefined)	10	4
O=C1CC2(CCCCCC2)C(=O)N1c1ccccc1Cl	9	4
CCNC(=O)N1CCSC12C(=O)N(Cc1cccc(C#N)c1)c1ccc(F)cc12 (centres undefined)	5	5
Cc1[nH]c2ccccc2c1C(=O)CN1C(=O)NC2(CCCCCCC2)C1=O	-3	-6
O=S(=O)(c1ccccc1)c1cnc2cc3c(cc2c1N1CCOCC1)OCCO3	7	7
